Assay outcomes from PubChem BioAssay.
PINK1 expr mod – changes PINK1 expression | PINK1 immunofluorescence, high-content cytometry, 24 h | Potency, µM (highest dose often 76.6 µM), for the others: at the highest dose activation (PINK1 increase), usual class: activators | hit rate 0.2% among 410,000 | AID 624263; active = well fitted activation curve with a large enough effect; inconclusive = small, poorly fitted or top-dose-only effect; inactive = flat fitted curve, though single readings scatter; cell line not stated here;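 further: potency means the concentration at half of the fitted maximal effect; % of control where 0% means no effect; nearly all actives have a fitted effect of over 65% in size; a mitochondrial uncoupler was the plate control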
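A stable cell line was treated with compounds at 5 concentrations for 24 hours, with CCCP as control. PINK1 levels and mitochondrial localization were measured by immunofluorescence with mitochondrial, cell and nuclear markers after fixation, read by laser-scanning cytometry.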
D2 PAM – potentiates the human D2 dopamine receptor allosterically; hit rate 0.23% among 360,000; DiscoveRx D2 beta-arrestin cells, luminescence, 90 min; 100% = 57 uM dopamine signal; P14416; potentiation, % (no concentration beside the values); active = potentiation of 50% or more; inconclusive = 30% to 50%; inactive = 30% or less;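 further: compound concentration not given in the record; tested on top of an EC20 dose of dopamine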
Target sequence (P14416 whole entry, looked up): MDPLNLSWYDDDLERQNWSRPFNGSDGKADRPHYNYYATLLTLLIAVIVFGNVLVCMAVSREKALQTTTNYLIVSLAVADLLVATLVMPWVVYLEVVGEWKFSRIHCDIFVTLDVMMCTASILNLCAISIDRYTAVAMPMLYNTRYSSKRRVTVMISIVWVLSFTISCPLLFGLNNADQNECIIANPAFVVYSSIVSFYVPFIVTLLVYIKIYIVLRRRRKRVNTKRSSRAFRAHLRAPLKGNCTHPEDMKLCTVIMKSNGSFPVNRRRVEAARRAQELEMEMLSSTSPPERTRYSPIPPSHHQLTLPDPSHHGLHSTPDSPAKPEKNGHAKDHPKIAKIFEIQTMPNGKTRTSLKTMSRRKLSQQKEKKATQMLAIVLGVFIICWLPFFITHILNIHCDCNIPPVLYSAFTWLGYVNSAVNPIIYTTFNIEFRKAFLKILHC
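PathHunter D2 cells, attached overnight at 37 deg C, received compound in DMSO plus dopamine at EC20 (50 nM final) for 90 min at 37 deg C. Beta-arrestin recruitment was read as luminescence after 1 h with detection reagent at ambient temperature.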
TRPML1 ag – agonists of human TRPML1 channel | activation, % (concentration not given with the values) | TRPML1-expressing cells, Ca2+ dye fluorescence, FDSS; host cell line not named in the record; reference of the full effect not given here | AID 624414 | Q9GZU1 | hit rate 0.12% among 410,000; in the data active = activation above about 50%; inconclusive = about 30% to 50%; inactive = below about 30%; further: 0% is about no effect; the text of the record puts the active cut at 80%
Target sequence (Q9GZU1 whole entry, looked up): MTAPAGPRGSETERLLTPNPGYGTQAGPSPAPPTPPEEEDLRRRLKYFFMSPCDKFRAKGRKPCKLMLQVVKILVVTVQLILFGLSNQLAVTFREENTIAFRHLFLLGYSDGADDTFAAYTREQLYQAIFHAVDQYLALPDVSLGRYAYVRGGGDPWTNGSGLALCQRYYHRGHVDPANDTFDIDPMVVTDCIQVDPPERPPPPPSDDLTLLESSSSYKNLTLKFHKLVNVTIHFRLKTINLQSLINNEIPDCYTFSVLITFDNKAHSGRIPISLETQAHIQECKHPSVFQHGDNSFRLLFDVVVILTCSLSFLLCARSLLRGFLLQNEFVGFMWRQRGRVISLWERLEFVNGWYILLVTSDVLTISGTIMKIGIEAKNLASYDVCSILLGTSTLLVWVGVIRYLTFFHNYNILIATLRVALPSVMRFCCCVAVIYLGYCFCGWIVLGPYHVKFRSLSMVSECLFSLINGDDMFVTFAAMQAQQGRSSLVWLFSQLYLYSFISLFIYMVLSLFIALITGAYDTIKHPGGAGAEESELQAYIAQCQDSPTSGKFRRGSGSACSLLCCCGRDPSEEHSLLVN
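In this qHTS format, compounds were pin-transferred onto Ca8-dye-loaded TRPML1-DL cells induced with Tet overnight, and intracellular Ca2+ fluorescence was recorded kinetically for 110 s after a 10 s baseline. A subsequent 4uM final 54-4 (EC80) addition followed by a second 110 s read served as the antagonist phase.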
TRPML1 inh – human mucolipin-1 channel inhibition | Q9GZU1 | TRPML1-inducible cells, Ca2+ dye fluorescence, FDSS; hits give low values; inhibition of EC80 agonist-evoked calcium signal | activity change, negative = inhibition, % (no concentration beside the values) | hit rate 0.02% among 390,000 | AID 624415; in the data active means activity change below about -50%; inconclusive means about -30% to -50%; inactive means above about -30%;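 further: stimulus is agonist 54-4 at its EC80 concentration; on the % scale 0 is the no-effect control and ±100 the full control effect; compound concentration not given in the record; the text of the record puts the active cut at -80%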
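Tet-induced TRPML1-DL cells loaded with Ca8 no-wash calcium dye were read kinetically on FDSS. Compound addition was followed by EC80 agonist 54-4 (4 uM final); inhibition was read over 110 s.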
D2 agonist – agonists of human D2 dopamine receptor (beta-arrestin) | AID 624465 | P14416 | DiscoveRx PathHunter D2 beta-arrestin, luminescence, 90 min; 100% = 57 uM dopamine signal | hit rate 0.084% among 360,000 | activation, % (no concentration beside the values); in the data active = activation above about 40%; inconclusive = about 15% to 40%; inactive = below about 15%; further: compound concentration not given in the record; the text of the record calls up to 30% inactive
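DiscoveRx PathHunter D2 beta-arrestin cells (2,100/well) attached overnight, then compound-stimulated 90 min at 37 C in HBSS/10 mM HEPES/0.1% Tween-20 buffer; beta-galactosidase complementation read by luminescence after 1 h at ambient temperature. Dopamine 57 uM final (EC100) as control.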
Six1-Eya2 inh – inhibitors of human Six1/Eya2 interaction; Q15475+O00167; AlphaScreen GST-Six1/His-Eya2 binding, biochemical; hits give low values; control for the full effect not named in the record; activity change, % (concentration not given with the values); hit rate 0.56% among 360,000; AID 651725; in the data active = activity change below about -65%; inconclusive = about -30% to -65%; inactive = above about -30%; further: on the % scale 0 is the no-effect control and ±100 the full control effect
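Compounds are tested against tagged Six1 and Eya2 proteins bridged by glutathione donor and nickel acceptor beads; after a one-hour incubation at 37 °C without light, AlphaScreen emission is recorded.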
An asterisk follows results filed as active; ? = inconclusive; . = no result given; & = joins results of further samples; [ ] = another dose, or the depositor's remark.

structure,PINK1 expr mod,D2 PAM,TRPML1 ag,TRPML1 inh,D2 agonist,Six1-Eya2 inh
COc1cccc(NC(=O)CN(Cc2ccccc2)S(=O)(=O)c2ccc3nc(C)sc3c2)c1,1.7%,.,1.5,0.1,.,.
CC(C)NC(=O)C1CCN(c2nc3ccccc3nc2C(F)(F)F)CC1,0.1%,.,-0.2,4.6,.,.
CCc1nn(CC(=O)NC(C)c2ccccc2)c(=O)c2cc3sccc3n12 (configuration not stated),0.6%,.,-0.5,-0.9,.,.
Cc1cc(C)cc(OC(=O)CCN2C(=O)C3C4C=CC(C5CC45)C3C2=O)c1 (configuration not stated),0.5%,0.0,-0.1,-8.0,-7.0,10.4
Cc1cc(C)c(S(=O)(=O)N2CCN(C(=O)c3ccc(-n4cncn4)c([N+](=O)[O-])c3)CC2)c(C)c1,5.2%,11.3,1.6,1.2,4.2,-15.8
CCC(=O)Nc1nnc(S(=O)(=O)N2c3ccccc3CC2C)s1 (configuration not stated),2.9%&-0.1%,-7.3,4.5&3.4,3.8&12.5,-0.4,5.8
Cc1ccc(NC(=O)COC(=O)CN2C(=O)NC3(CCCC3)C2=O)cc1Cl,0.0%,-7.3,-0.1,15.3,-2.5,3.0
Cc1ccc(-c2nnc(Nc3cccc(O)c3)c3ccccc23)cc1S(=O)(=O)NCC1CCCO1 (configuration not stated),0.9%,.,-0.9,14.9,.,.
O=C1C=CC(=O)N1c1ccc2ccccc2c1,2.1%,-12.5,0.0,1.0,-3.9,7.5
COC(=O)c1nn(-c2ccc(Cl)cc2)c(=O)cc1Sc1ccccn1,-0.9%,-2.7,0.8,1.8,-0.7,5.0
CC(=O)c1cccc(S(=O)(=O)N2CCC(C(=O)Nc3cccc(C(=O)NC4CC4)c3)CC2)c1,0.4%,0.1,-0.7,-9.0,-1.9,1.2
Cc1ccccc1C(c1c(C)n(C)n(-c2ccccc2)c1=O)c1c(C)n(C)n(-c2ccccc2)c1=O,-1.0%,.,1.7,19.9,.,.
Cc1cccnc1C(NC(=O)C1CCN(CCOc2ccc(Cl)cc2Cl)CC1)c1ccc(Cl)cc1 (configuration not stated),-1.2%,-14.9,0.2,.,-3.3,-11.0
CC(C)OC(=O)Cn1c(=O)oc2ccccc21,0.0%,-11.4,0.5,7.4,2.4,10.8
Nc1nonc1-n1nnc(C(=O)N/N=C/c2cccs2)c1CSc1ccccc1,12.1%,-1.0,3.4,2.5,-0.8,3.7
CCc1cc(=O)oc2c(C)c(OCC(=O)Nc3ccc(S(=O)(=O)N(CC)CC)cc3)ccc12,1.4%,.,1.0,6.6,.,.
Cc1ccc(S(=O)(=O)/N=C(/Nc2nc(C)cs2)c2ccccc2)cc1,-1.0%,-7.1,-0.9,4.5,-4.5,4.6
COc1ccc(-c2[nH]ncc2CN(C)Cc2cc(C)[nH]n2)c(F)c1,-1.5%,-1.4,0.4,-9.0,-3.8,-16.3
COc1ccc(Cn2c(O)c(C=Nc3ccc(OC)cc3)c3ccccc3c2=O)cc1,1.5%,-2.2,2.3,23.4,0.9,5.0
COc1cc(OC)c(S(=O)(=O)N2CCN(C(=O)c3ccccc3F)CC2)cc1NC(C)=O,0.3%,3.2,0.2,25.9,0.0,1.6
CCC(C)c1ccccc1OCCCCN1CCCC1 (configuration not stated),-3.8%,-32.5,0.7,-1.2,-0.2,3.1
Cc1ccc(NC(=O)CSc2nc3ccc(NC(=O)c4cccc(Cl)c4)cc3s2)c(C)c1,9.2%,.,-0.6,36.8,.,.
CCCCN(C(=O)c1ccc(NC(=O)C(C)C)cc1)c1ccccc1,-0.1%,0.6,-1.1,21.8,2.2,-0.3
Cc1cccc2[nH]c(SCC(=O)N3CCOCC3)nc12,-0.6%,-6.3,-0.6,-6.2,-1.7,4.2
CS(=O)(=O)c1nc(S(=O)(=O)c2ccc(Cl)cc2)c(NCCCN2CCCC2=O)s1,-1.2%,-9.1,0.3,-28.4,-2.5,4.2
CC(c1ccccc1)N1CC(C(=O)N2CCN(c3ccccc3)CC2)CC1=O (configuration not stated),0.5%,-9.6,0.0,-8.9,-2.2,2.4
CCOC(=O)C1CCN(C(=O)CN(c2cccc(C(F)(F)F)c2)S(C)(=O)=O)CC1,-1.7%,10.5,3.5,15.2,-1.7,4.5
Cc1[nH][nH]c(=O)c1C(c1cc(Br)ccc1O)c1c(C)[nH][nH]c1=O,0.8%,-6.2,0.9,77.3,-1.5,-10.0
Cc1ccc(S(=O)(=O)NNC(=O)C(O)(c2ccccc2)c2ccccc2)cc1,1.5%,8.2,0.0,19.0,-1.3,-1.5
Cc1c(C#N)c2ncn(CC#N)c(=O)c2n1-c1ccccc1,0.1%,11.1,0.7,-27.5,-0.4,-0.1
CNC(=S)N1CCN(c2ccc(OC)cc2)CC1,.,4.0,0.6,-10.3,-1.0,1.3
O=C(CNC(=O)c1cccs1)N/N=C/c1cccc(Cl)c1,-0.3%,-25.4,0.0,-3.7,-2.9,-4.9
CCN(CC)C(=O)C1CCCN(C(=O)c2cc(COc3ccc4ncccc4c3)on2)C1 (configuration not stated),-0.3%,-8.3,-0.9,39.6,1.9,4.9
Cc1ccc(-n2c(SCC(=O)NC3CCS(=O)(=O)C3)nc3ccccc3c2=O)cc1C (configuration not stated),1.5%,-40.8,0.8,14.6,-6.2,-2.6
CCOC(=O)c1ccccc1NC(=O)c1c(O)c2ccccc2n(CC)c1=O,3.6%,-20.7,0.8,-19.1,-1.0,8.4
CCOC(=O)C(=O)NN=C(c1ccccc1)c1ccccc1,-0.3%,-5.4,-1.0,-16.0,1.0,0.8
Cc1ccc(S(=O)(=O)N(C)C)cc1NC(=O)c1ccccc1Br,4.0%,-14.1,-0.1,-9.4,-2.5,16.4
NC(=O)NC(=O)CN1C(=O)NC2(CCOc3ccccc32)C1=O (configuration not stated),0.6%,3.0,-0.6,7.4,3.0,5.1
Cc1cc(C)c(Cn2c(=O)n(Cc3ccccc3)c(=O)c3c(C)c(C)sc32)c(C)c1,4.2%,.,1.2,34.3,.,.
O=C(O)CCCN1C(=O)c2ccccc2Sc2ncccc21,2.2%,-1.6,.,.,-7.4,-10.4
Cc1ccc(S(=O)(=O)N2CCOCC2)cc1NC(=O)COC(=O)CCc1c[nH]c2ccccc12,-4.1%,3.4,0.2,-22.8,0.7,-5.8
Cc1cc(C)n(-c2ccc(C(=O)N3CCN(S(=O)(=O)c4ccc(Cl)cc4)CC3)cc2)n1,0.1%,-1.3,0.5,-12.2,1.4,2.3
O=S(=O)(Nc1ccc(-c2ccc(N3CCCC3)nn2)cc1)c1ccccc1Cl,-1.0%,.,-0.1,14.2,.,.
O=C(CCS(=O)(=O)Cc1ccccc1)Nc1nc2c(s1)CCCC2,21.4%[38.3 µM],-16.5,-0.5,7.2,-1.9,-5.6
Cc1ccc(S(=O)(=O)NC(C(=O)O)c2ccccc2)cc1 (configuration not stated),0.0%,-3.1,-0.7,-2.2,-12.8,3.7
CC(Oc1ccccc1)C(=O)Nc1nc(-c2ccncc2)cs1 (configuration not stated),1.7%,-1.7,0.6,17.2,-3.4,11.1
CCn1nnc(NC(=O)c2cccnc2Cl)n1,-2.4%,2.6,2.9,6.0,-0.7,1.5
O=C(NOCc1cscn1)Nc1ccccc1,-3.1%,4.7,0.4,11.0,-2.1,13.1

Not a retest: two of the compounds above.
structure,PINK1 expr mod,D2 PAM,TRPML1 ag,TRPML1 inh,D2 agonist,Six1-Eya2 inh
CCn1nnc(NC(=O)c2cccnc2Cl)n1,-2.4%,2.6,2.9,6.0,-0.7,1.5
O=C(NOCc1cscn1)Nc1ccccc1,-3.1%,4.7,0.4,11.0,-2.1,13.1

Additional entries follow:
structure,PINK1 expr mod,D2 PAM,TRPML1 ag,TRPML1 inh,D2 agonist,Six1-Eya2 inh
CCSc1nc2c(c(=O)[nH]c(=O)n2C)n1CC(O)COc1ccccc1C (configuration not stated),-5.5%[38.3 µM],1.4,-0.3,20.2,0.7,-0.1
Cc1cccc2[nH]c(CN(C)C(=O)CC3C(=O)NCCN3CC(C)(C)C)nc12 (configuration not stated),-0.9%,-2.0,-0.3,-1.8,0.1,5.7
CCN1C(=O)[C@H]2[C@@H](c3ccc(-c4ccc(C(C)=O)cc4)c(OC)c3)N[C@@](Cc3ccccc3)(C(=O)OC)[C@H]2C1=O,0.6%,-3.4,0.3,-2.2,1.2,-9.3
CSc1ccc(S(=O)(=O)Nc2ccc3c4c(cccc24)CC3)cc1,?,9.0,-0.6,0.4,-1.5,-8.7
Cc1ccccc1C(=O)NC(C(=O)Nc1nc2c(s1)CCCC2)C(C)C (configuration not stated),6.4%,-8.1,-0.2,10.2,-3.3,-4.4
CC(=O)N1CCN(c2ccc(NC(=O)c3cccc([N+](=O)[O-])c3)cc2)CC1,-0.1%,-6.4,.,.,6.7,-3.1
C=CCOc1c(OC)cc(/C=N/Nc2cccc(C(=O)O)c2)c(Br)c1Br,2.8%,7.2,2.9,16.7,3.2,-5.5
CCN(CC)CCn1c2c(c(SCC(=O)Nc3ccc4c(c3)OCO4)nc1=O)CCC2,-0.5%,-13.6,-0.1,3.9,-8.1,2.2
COc1ccccc1NC(=O)CSc1nc2ccccc2c(=O)n1CCC(=O)NC1CCCCC1,1.3%,.,0.3,3.6,.,.
O=C(NC1CCCCC1)c1cc(-n2cnnc2)ccc1Cl,4.5%,0.7,-0.5,7.9,-6.6,2.2
COc1ccc(NC(=S)NN2CCN(C)CC2)cc1OC,-1.2%,2.7,0.5,-2.5,-2.1,12.4
CN(C)c1nc(N)nc(CSc2ccccn2)n1,0.5%[38.3 µM],5.0,0.4,1.7,1.8,0.0
Cc1c(Br)c([N+](=O)[O-])nn1CC(=O)Nc1ccc(C(C)C)cc1,?,-36.6,0.3,8.5,-5.9,-9.5
CS(=O)(=O)Oc1ccc(/C=N/NC(=O)c2ccncc2)cc1,-0.3%,-1.9,0.1,-7.0,3.1,10.6
CCOc1ccc(OCC)c(Nc2nc3ccccc3n3nnnc23)c1,0.5%,.,1.2,-16.9,.,.
CCOC(=O)c1nc(Nc2ccc(Cl)cc2)c2c(C)noc2n1,-0.5%,.,0.8,-11.8,.,.
Cc1ccc(NS(=O)(=O)c2ccc(Cl)s2)cc1S(=O)(=O)N(C)C,0.9%,-1.7,0.4,-27.7,1.3,2.3
Cc1ccc(S(=O)(=O)N(C)C[C@H]2Oc3ncc(-c4ccccc4)cc3C(=O)N([C@@H](C)CO)C[C@@H]2C)cc1,-1.3%,-3.5,2.6,19.5,3.3,5.9
COc1ccc(-c2cc(C)no2)cc1S(=O)(=O)NCCc1ccco1,0.0%,-4.6,-1.0,-23.9,-5.5,-2.9

Compounds as they come (roughly 1% active in at least one column).
